Screening data (PubChem)
YopH PTP inh – YopH (Yersinia) phosphatase inhibition | fluorescence Ex485/Em525 | inhibition, %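 (about 10 µM by stock and volumes)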 | 0.16% of 140,000 active | AID 898;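 active = inhibition of 50% or more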;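 note: controls were vehicle for no effect and minimum signal wells for full effect; inactives centre near -20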
Arbovirus anti – antivirals against arbovirus infection; inhibition, % at 10 µM; 0.37% of 200,000 active; arbovirus infection cell-based antiviral screen;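 active = inhibition from about 30%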;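 note: bluetongue infection of BSR cells; cell survival read as ATP light after 72 h; 0% = infected wells without compound and 100% = uninfected wells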
Mtb betalactam – beta-lactam sensitization of Mtb H37Rv. 0.27% of 330,000 active. inhibition, % at 25 µM. M. tuberculosis H37Rv growth with meropenem, percent inhibition; hits of this screen are not shown here;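 active = about 74% or more and at least 40 points above the plate without the antibiotic, then above 30% in a dose series; inconclusive = first-round hits that could not be retested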;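 note: growth measured after seven days incubation then overnight dye step; 0% = bacteria only wells and 100% = bacteria with antibiotic; twin plates without the antibiotic show which effects depend on it; some results filed as inactive read as strong as hits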
Mtb growth – M. tuberculosis H37Rv growth inhibitors, H37Rv strain (AID 1626); M. tuberculosis H37Rv growth inhibition; higher % means a stronger effect; 0.95% of 220,000 active; inhibition, % at 10 µM; hits with a dose series show IC50 in µM;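 active = confirmed in a dose series; inconclusive = inhibition above 80% but not taken into the dose series; inactive = below 80% or under 30% at every dose of the series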;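 note: bacteria incubated seven days before Alamar blue readout; 0% = bacteria only wells and 100% = bacteria with antibiotic wells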
RecA splice inh – blocks M. tuberculosis RecA intein splicing; inhibition, %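 (about 9 µM by stock and volumes)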; cell-free RecA intein splicing, fluorescence; P9WHJ3; 0.75% of 290,000 active; in the data active = inhibition above about 30%; inconclusive = no clear call, values can overlap the other calls;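 note: 0% = vehicle wells and 100% = reference inhibitor control wells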
Target sequence (P9WHJ3 whole entry, looked up, canonical isoform): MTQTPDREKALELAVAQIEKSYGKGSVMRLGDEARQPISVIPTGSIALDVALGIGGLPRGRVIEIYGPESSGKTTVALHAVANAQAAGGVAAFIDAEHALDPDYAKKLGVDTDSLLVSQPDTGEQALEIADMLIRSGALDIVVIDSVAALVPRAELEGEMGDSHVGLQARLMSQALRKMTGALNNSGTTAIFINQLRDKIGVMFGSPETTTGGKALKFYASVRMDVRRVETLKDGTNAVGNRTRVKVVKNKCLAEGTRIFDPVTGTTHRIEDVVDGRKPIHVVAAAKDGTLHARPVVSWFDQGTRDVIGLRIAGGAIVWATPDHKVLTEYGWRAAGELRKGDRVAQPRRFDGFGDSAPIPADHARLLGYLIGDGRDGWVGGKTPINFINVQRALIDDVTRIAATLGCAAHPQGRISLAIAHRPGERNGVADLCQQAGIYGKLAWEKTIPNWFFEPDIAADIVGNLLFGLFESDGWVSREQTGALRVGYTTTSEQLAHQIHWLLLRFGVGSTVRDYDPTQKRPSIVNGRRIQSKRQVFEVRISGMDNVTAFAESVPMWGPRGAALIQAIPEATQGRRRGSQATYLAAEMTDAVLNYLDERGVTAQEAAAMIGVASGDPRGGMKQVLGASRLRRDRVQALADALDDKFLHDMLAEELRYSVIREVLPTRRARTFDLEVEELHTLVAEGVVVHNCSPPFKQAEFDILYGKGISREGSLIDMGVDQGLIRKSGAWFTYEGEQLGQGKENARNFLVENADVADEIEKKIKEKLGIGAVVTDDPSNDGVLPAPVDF
Arbovirus anti repeat – recorded beside Arbovirus anti, whose call it bears; inhibition, %; measured here: 10K subset replicate screen; many hits read low in the repeat;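 first of two repeat runs on a subset; 0% = infected and 100% = uninfected wells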
An asterisk follows results filed as active; ? = inconclusive; . = no result given. A portion of the library. The share of hits here may be higher or lower than overall.

SMILES	YopH PTP inh	Arbovirus anti	Mtb betalactam	Mtb growth	RecA splice inh	others
CC1CCCC(NC(=O)COC(=O)[C@@H]2CC(O)CN2S(=O)(=O)c2ccc3c(c2)OCCO3)C1C (stereo not given in full)	-35.9	1.7	2.0	5.2%	0.9
Cc1cc(NC(=O)CCC(=O)N(C(C(=O)NC(C)(C)C)c2ccccc2Cl)C(C)(C)C)no1 (stereo not given)	.	.	-4.7	.	-3.1
COc1ccc(NC(=O)CS(=O)(=O)c2ccccc2)cc1	.	.	-3.0	.	-1.7
O=C(CSc1nc2ccccc2n1-c1ccccc1)NCC1CCCO1 (stereo not given)	-21.1	1.6	1.4	-1.0%	2.9
CCCCn1c(N)c(N(CCOC)C(=O)c2cc3c(s2)CCCCC3)c(=O)[nH]c1=O	.	.	-13.1	.	-0.4
Cc1ccc(C(=O)OCC(=O)NC(=O)c2cccn2C)cc1	-9.2	1.9	4.1	-5.3%	-1.2
CCOC(=O)C1(CCc2ccccc2)CCN(Cc2cccc3c2OCO3)CC1	.	8.8	5.3	4.8%	3.6
O=C(CNc1cc(S(=O)(=O)N2CCCC2)ccc1OCC(F)(F)F)Nc1ccc(SC(F)F)cc1	-21.3	-7.5	2.1	16.7%	0.8
O=C1N(Cc2ccccc2)CCCC12CCCN(Cc1ccccc1)C2=O	7.2	9.0	-10.6	-4.4%	-0.6
CC(C)(C)C1CCC(=NNC(=O)c2cc(-c3ccccc3)n[nH]2)CC1 (stereo not given)	-26.2	-4.8	3.5	25.8%	-5.3
Cc1cc(C)n(-c2nc(NC(C)C)nc(NC(C)C)n2)n1	-46.1	-2.6	74.8	0.961µM*	0.6
O=C(NCc1ccccc1Cl)C1CCN(S(=O)(=O)c2ccc(N3CCCC3=O)cc2)CC1	.	.	-5.1	.	1.0
CC(=O)c1cccc(NC(=O)c2ccc(N(Cc3ccccc3C)S(C)(=O)=O)cc2)c1	-43.1	-7.6	-4.5	11.6%	8.1
CCn1c(SCC(=O)N2CCOCC2)nnc1-c1cccs1	-25.7	7.5	15.3	1.8%	0.5
COc1ccc([N+](=O)[O-])cc1NC(=O)c1ccc(CN(c2ccc(C)c(C)c2)S(C)(=O)=O)cc1	-14.5	-2.8	1.3	2.3%	2.8
Oc1ccccc1-c1csc(-c2ccccc2)n1	.	14.0	5.7	8.2%	7.1
CC(C)CNC(=O)c1cc([N+](=O)[O-])ccc1N1CCCCC1	-22.7	0.1	0.0	4.8%	1.3
COC(=O)c1ccc(C(C(=O)NC2CCCCC2)N(Cc2ccc(F)cc2)C(=O)Cc2cccs2)cc1 (stereo not given)	-22.3	-8.6	9.8	-0.8%	-1.6
CCCOc1cccc(C2C(C(=O)c3cc4ccccc4o3)=C(O)C(=O)N2c2cc(C)on2)c1 (stereo not given)	.	.	0.6	.	-8.3
CC(=O)c1cccc(CN2CCCC(CCC(=O)NCc3ccc(F)c(F)c3)C2)c1 (stereo not given)	.	-2.1	4.0	1.3%	2.2
Cc1cc(S(=O)(=O)N2CCN(c3ccccc3C)CC2)ccc1F	3.0	-4.3	-7.5	0.8%	7.9
O=C(O)c1cc(NS(=O)(=O)c2ccc(NC3CCCCC3)c([N+](=O)[O-])c2)cc(C(=O)O)c1	.	-4.0	1.8	-1.0%	0.0
COc1ccc(CNC(=O)C2CCC(CNC(=O)[C@@H]3Cc4ccccc4CN3)CC2)cc1 (stereo not given in full)	.	.	-3.5	.	1.1
Cc1ccc(S(=O)(=O)N2CCOCC2)cc1C(=O)Nc1ccc(-c2cn3ccsc3n2)cc1	-38.7	2.0	12.3	-3.9%	1.7
O=C(Oc1ccc(F)cc1C(=O)/C=C/c1cccs1)c1cccc([N+](=O)[O-])c1	-34.1	-13.4	21.0	12.5%	11.5
CCNC(=S)/N=C(\N)Nc1nc(C)c2cc(C)ccc2n1	.	12.6	41.2	5.3%	0.5
CCCN(CCC)CC(O)Cn1c2ccccc2c2ccccc21 (stereo not given)	.	4.0	-0.7	5.5%	-0.5
C=CCn1c(SC(C)C(=O)NCc2ccc3c(c2)OCO3)nnc1C1CCCCC1 (stereo not given)	-31.5	0.8	-14.2	-6.0%	-0.6
CCOC(=O)Cn1c(N2CCOCC2)nc2c1c(=O)[nH]c(=O)n2C	-1.0	10.6	-11.5	0.4%	1.5
O=C1c2ccccc2-c2ccc(C(=O)N3CCOCC3)cc21	1.3	3.0	-7.2	-0.1%	0.3
CS(=O)(=O)N(CC(=O)NCCc1ccccc1)C1CCCCC1	-21.5	3.3	-6.0	-7.3%	-2.1
Cc1ccc(/C=N/N=C2/NC(=O)C(CC(=O)Nc3ccc(Cl)cc3)S2)o1 (stereo not given)	25.1	-2.6	-6.3	7.5%	0.4
Cc1ccc(CN2CCCN(Cc3c(C)cc(C)cc3C)S2(=O)=O)cc1	.	.	-0.2	.	16.0
CCC(C)(C)n1nnnc1C(c1cccs1)N1CCN(Cc2ccccc2)CC1 (stereo not given)	-43.5	9.8	0.1	4.3%	2.5
Cc1ccc(-n2cc(C(C)(C)C)[nH]c2=S)cc1	-9.3	-0.7	-5.4	-10.6%	0.5
Cc1ccc(S(=O)(=O)NNC(=O)c2ccccc2O)cc1	-41.4	10.6	-0.2	0.0%	-0.3
O=C(N/N=C/c1ccc(-c2ccccc2[N+](=O)[O-])o1)c1cncc(Br)c1	-18.8	-8.5	41.1	-0.1%	28.0
COc1ccc(OC)c(S(=O)(=O)Nc2ccccc2O)c1	.	.	-4.6	.	-3.6
COc1ccc(NC(=O)CSc2nccn2C)c([N+](=O)[O-])c1	.	6.7	-7.3	1.2%	0.9
CC(=O)N1CCN(c2ccc(NCc3ccccc3)cc2)CC1	-28.8	-19.6	-8.7	-3.9%	-4.7
CN(C)NC1CC(=O)N(c2ccccc2)C1=O (stereo not given)	.	-1.3	-3.6	-7.5%	0.5
Cc1ccccc1CS(=O)(=O)c1cn(CC(=O)N2CCOCC2)c2ccccc12	.	.	-5.4	.	2.0
COc1ccccc1OCC(=O)Nc1ccccc1C(=O)Nc1cccc(C(=O)O)c1	.	.	-3.7	.	1.6
Cc1ccc(NCc2nc3ccccc3n2C)cc1C	.	.	1.2	.	-4.5
CC(=O)c1cccc(N(CC(=O)Nc2cc(C)cc(C)c2)S(C)(=O)=O)c1	.	-4.0	-7.5	1.9%	-0.5
CCOC(=O)N1CCN(C(=O)CSCC(=O)Nc2nc(-c3ccc4c(c3)OCO4)cs2)CC1	-18.3	4.8	-7.1	-1.7%	.
CCOc1ccc(S(=O)(=O)NCCc2cn3ccccc3n2)cc1	.	.	-3.1	.	-1.6
CSc1ncccc1C(=O)OCC(=O)Nc1ccc(S(=O)(=O)N2CCCC2)cc1	-26.9	4.8	3.0	-6.3%	-0.3
N=c1sccn1CC(=O)Nc1ccc(Cl)cc1[N+](=O)[O-]	.	.	70.3	7.3%	-0.7
CC1CCN(S(=O)(=O)c2ccc3c(c2)oc(=O)n3CC(=O)NCc2ccc3c(c2)OCO3)CC1	-59.3	7.3	-0.7	-8.8%	-0.7	Arbovirus anti repeat=-6.0
COc1ccc(-c2nc(C)c(C(C)=O)n2O)cc1	17.1	7.7	0.8	-11.1%	0.4
CCOC(=O)N1CCN(C(=O)c2ccc3c(=O)n4c(nc3c2)CCCCC4)CC1	-4.6	3.8	-6.4	-2.7%	-5.1
CSCC[C@H](NC(=O)C(C)Oc1ccc(Cl)cc1)c1nc2ccccc2[nH]1 (stereo not given in full)	-5.4	-14.3	-6.6	3.0%	0.5
COC(=O)c1cc(NC(=O)Nc2cc(OC)ccc2OC)cc(C(=O)OC)c1	-2.9	-3.7	11.7	-0.5%	1.6
CN(C(=O)c1ccc(Cl)c(S(=O)(=O)N2CCOCC2)c1)c1ccccc1C(=O)O	-50.6	0.1	0.1	-6.0%	-1.0
CCN(CC)S(=O)(=O)c1cc(C(=O)Nc2cc(C)on2)c(Cl)cc1Cl	.	.	5.4	.	2.5
CCOC(=O)Nc1cc(C(=O)OC)ccc1C	-18.8	1.0	-0.6	0.7%	-0.8
O=C(O)c1ccccc1NC(=O)c1cc2ccccc2oc1=O	.	.	6.3	.	0.0
O=C(NNC(=S)Nc1cccc(C(F)(F)F)c1)c1cccc(Cl)c1	-20.9	-8.1	3.8	3.9%	9.6
COc1cccc(CNCC2CCCO2)c1 (stereo not given)	.	.	-3.9	.	-3.2
Following part:
SMILES	YopH PTP inh	Arbovirus anti	Mtb betalactam	Mtb growth	RecA splice inh	others
Cc1ccc(C(=O)CSc2nnc(-c3cccs3)n2C)o1	-33.8	4.0	-8.8	-5.3%	-8.7	Arbovirus anti repeat=2.6
CCOC(=O)N/N=C1\CC(C)CC(C)(C)C1 (stereo not given)	-13.7	-0.5	-4.8	0.7%	-2.4
O=C(COc1ccc([N+](=O)[O-])cc1)Nc1ccc2[nH]c(=O)[nH]c2c1	.	.	0.4	.	-4.2
COC(=O)[C@@H]1C[C@@]2(O)[C@@H](O)[C@@H](O)[C@@H](O)C[C@H]2N1Cc1ccc(C)s1	.	.	-9.8	-8.4%	-0.3
CCOC(=O)N1CCN(C(=O)C2CCN(S(=O)(=O)c3ccccc3)CC2)CC1	9.7	6.3	-16.1	4.8%	-0.1
CCN(CC)CCN1C(=O)C(=O)/C(=C(/O)c2cnn(-c3ccccc3)c2C)C1c1cccs1 (stereo not given)	-56.8	3.2	.	-7.2%	.
Clc1ccc(CSc2cc3c(nn2)-c2ccccc2CC3)cc1Cl	-37.9	10.2	47.4	10.5%	14.9
Cc1c(NC2=NC3(CCCCC3)Cc3ccccc32)c(=O)n(-c2ccccc2)n1C	-0.6	3.1	-4.0	-11.8%	-1.1
Cc1ccc(-n2c(SCC(=O)N(C)C3CCS(=O)(=O)C3)nc3ccccc3c2=O)cc1 (stereo not given)	.	9.0	-0.3	2.1%	-1.2
COC(=O)c1c(NC(C)=O)sc(C(=O)Nc2ccccc2)c1C	.	2.7	0.6	-1.9%	1.6
CCN(C(=S)NC(=O)c1ccccc1Br)C1CCCCC1	-22.7	-8.9	90.4	?	-1.5
Cc1ccc(NC(=O)CCC(=O)OC(C)C(=O)c2ccccc2)cc1 (stereo not given)	.	.	3.5	.	-0.4
C=CCn1c(C(CC(C)C)CC(C)O)n[nH]c1=S (stereo not given)	-31.5	0.0	-3.3	4.7%	-3.2
COc1ccc(NC(=O)CN(c2ccccc2)S(=O)(=O)N(C)C)cc1OC	-2.8	-0.2	0.8	-2.3%	1.4
CCOC(=O)C(C)Sc1nc(-c2ccco2)cc(C(F)(F)F)c1C#N (stereo not given)	-45.7	-0.2	23.2	-0.6%	9.4

Some of these compounds in order of count of non-hydrogen atoms, highest first.
SMILES	YopH PTP inh	Arbovirus anti	Mtb betalactam	Mtb growth	RecA splice inh	others
Cc1ccc(-n2c(SCC(=O)N(C)C3CCS(=O)(=O)C3)nc3ccccc3c2=O)cc1 (stereo not given)	.	9.0	-0.3	2.1%	-1.2
CC(=O)c1cccc(CN2CCCC(CCC(=O)NCc3ccc(F)c(F)c3)C2)c1 (stereo not given)	.	-2.1	4.0	1.3%	2.2
Cc1ccc(CN2CCCN(Cc3c(C)cc(C)cc3C)S2(=O)=O)cc1	.	.	-0.2	.	16.0
CCOC(=O)Cn1c(N2CCOCC2)nc2c1c(=O)[nH]c(=O)n2C	-1.0	10.6	-11.5	0.4%	1.5

(listing goes on)
SMILES	YopH PTP inh	Arbovirus anti	Mtb betalactam	Mtb growth	RecA splice inh	others
Cc1ccc(-n2nc3c(c2NC(=O)CC(C)C)CS(=O)(=O)C3)cc1	.	.	-8.7	.	2.7
Cc1cc(C)cc(C(=O)OCC(=O)NCC(F)(F)F)c1	-4.7	3.7	1.7	9.5%	0.0
COc1cccc(N/C(SC)=C(/C#N)C(=O)NCc2cccs2)c1	.	-2.0	-4.7	-5.5%	.
O=C(NCc1ccc(Cl)cc1)C1CCCN1C(=O)Nc1ccccc1 (stereo not given)	.	.	4.5	.	0.6
COc1ccc(NC(=O)COn2nnc3ccc(Cl)cc32)cc1OC	-30.0	4.5	-4.8	5.9%	-4.0
CCn1c(-c2csc3c2CCC(C)C3)n[nH]c1=S (stereo not given)	-20.2	1.7	-0.7	5.4%	1.9
CCC(C)C(=O)Nc1cc(C(=O)OC)cc(C(=O)OC)c1 (stereo not given)	-48.5	-2.9	0.8	-9.6%	1.8
CCc1ccc(NC(=O)CN2C(=O)CC(C)S(=O)(=O)c3ccccc32)cc1 (stereo not given)	.	.	0.0	.	4.2
CC(C)CNC(=O)COC(=O)c1ccc2c(c1)C(=O)N(Cc1ccco1)C2=O	.	.	2.5	.	-1.4
O=C(NC1CCCCCCC1)c1cc(F)c(F)cc1Cl	.	-3.0	2.1	8.4%	3.0
Cc1c(NC(=O)Nc2ccc(Cl)cc2Cl)c(=O)n(-c2ccccc2)n1C	.	-1.3	-4.8	6.6%	-1.7
COc1ccc2c(c1)c(C(=O)N/N=C/c1cccc(Br)c1)c(C)n2C	.	.	5.6	5.7%	-1.5
CCOc1ccc(N(CC(=O)Nc2c(C)n(C)n(-c3ccccc3)c2=O)S(=O)(=O)c2ccccc2)cc1	.	-6.0	0.7	-10.7%	-1.0
